RecA splice inh – blocks M. tuberculosis RecA intein splicing; P9WHJ3; cell-free RecA intein splicing, fluorescence; inhibition, %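 (about 9 µM by stock and volumes)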; actives 0.75% (n = 290,000); in the data active = inhibition above about 30%; inconclusive = no clear call, values can overlap the other calls;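 note: 0% = vehicle wells and 100% = reference inhibitor control wells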
Target sequence (P9WHJ3 whole entry, looked up, canonical isoform): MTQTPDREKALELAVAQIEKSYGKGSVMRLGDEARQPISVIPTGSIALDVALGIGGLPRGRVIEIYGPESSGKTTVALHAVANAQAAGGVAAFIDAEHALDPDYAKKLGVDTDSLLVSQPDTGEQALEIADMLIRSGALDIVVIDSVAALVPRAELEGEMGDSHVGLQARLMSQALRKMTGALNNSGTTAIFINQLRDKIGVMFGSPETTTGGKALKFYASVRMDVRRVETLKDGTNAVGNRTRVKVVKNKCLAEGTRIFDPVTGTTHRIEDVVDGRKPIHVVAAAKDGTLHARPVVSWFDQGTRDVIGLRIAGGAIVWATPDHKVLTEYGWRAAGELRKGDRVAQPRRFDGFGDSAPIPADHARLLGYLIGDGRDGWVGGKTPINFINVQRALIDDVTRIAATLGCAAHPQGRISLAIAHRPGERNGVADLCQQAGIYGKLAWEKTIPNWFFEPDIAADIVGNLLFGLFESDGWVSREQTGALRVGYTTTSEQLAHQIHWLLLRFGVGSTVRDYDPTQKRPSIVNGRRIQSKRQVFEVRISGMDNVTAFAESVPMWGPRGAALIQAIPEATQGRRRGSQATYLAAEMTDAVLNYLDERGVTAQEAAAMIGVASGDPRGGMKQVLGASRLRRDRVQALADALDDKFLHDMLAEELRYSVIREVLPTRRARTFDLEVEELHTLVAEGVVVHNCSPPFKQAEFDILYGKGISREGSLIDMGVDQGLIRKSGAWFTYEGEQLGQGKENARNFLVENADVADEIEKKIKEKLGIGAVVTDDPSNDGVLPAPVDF
Mtb H37Rv – M. tuberculosis H37Rv growth inhibitors, H37Rv strain (AID 1626); M. tuberculosis H37Rv growth inhibition; higher % means a stronger effect; inhibition, % at 10 µM, or IC50 in µM where a hit was titrated; actives 0.95% (n = 220,000);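 active = confirmed in a dose series; inconclusive = inhibition above 80% but not taken into the dose series; inactive = below 80% or under 30% at every dose of the series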;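 note: bacteria incubated seven days before Alamar blue readout; 0% = bacteria only wells and 100% = bacteria with antibiotic wells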
YopH PTP inh – blocks Yersinia enterocolitica YopH tyrosine phosphatase; fluorescence Ex485/Em525; inhibition, %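 (about 10 µM by stock and volumes)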; actives 0.16% (n = 140,000); AID 898;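 active = inhibition of 50% or more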;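 note: controls were vehicle for no effect and minimum signal wells for full effect; inactives centre near -20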
Mtb betalactam – beta-lactam sensitization of Mtb H37Rv; AID 434955; actives 0.27% (n = 330,000); M. tuberculosis H37Rv growth with meropenem, percent inhibition; hits of this screen are not shown here; inhibition, % at 25 µM;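 active = about 74% or more and at least 40 points above the plate without the antibiotic, then above 30% in a dose series; inconclusive = first-round hits that could not be retested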;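 note: growth measured after seven days incubation then overnight dye step; 0% = bacteria only wells and 100% = bacteria with antibiotic; twin plates without the antibiotic show which effects depend on it; some results filed as inactive read as strong as hits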
Arbovirus anti – arbovirus infection inhibition. arbovirus infection cell-based antiviral screen. inhibition, % at 10 µM. actives 0.37% (n = 200,000);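 active = inhibition from about 30%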;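 note: bluetongue infection of BSR cells; cell survival read as ATP light after 72 h; 0% = infected wells without compound and 100% = uninfected wells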
An asterisk follows results filed as active; ? = inconclusive; . = not tested or not shown. This is a subset, so the mix of outcomes need not match the whole.

entry	compound	RecA splice inh	Mtb H37Rv	YopH PTP inh	Mtb betalactam	Arbovirus anti
1	COc1cccc(C2=NOC(C(=O)Nc3c(C)n(C)n(-c4ccccc4)c3=O)C2)c1 (stereo not given)	-1.6	-3%	.	-9	.
2	CC(=O)NC1(C(=O)O)CCCC1	0.2	-3%	.	-6	.
3	CC(C)c1ccc(NS(=O)(=O)c2ccc3[nH]cc(C(=O)N4CCC(C(N)=O)CC4)c(=O)c3c2)cc1	-3.5	-1%	-33	-20	15
4	Cc1cccc(NC(=O)Nc2c(C)n(C)n(-c3ccccc3)c2=O)c1	-0.1	.	.	4	.
5	Cc1ccc(S(=O)(=O)NCc2ccccc2)cc1C(=O)N(C)CC(=O)Nc1c(Cl)cccc1Cl	0.8	.	.	-5	.
6	CC(Cl)C(=O)c1c(N)n(C)c(=O)n(C)c1=O (stereo not given)	-1.7	-17%	-11	-7	-2
7	O=C(O)CCc1[nH]c2ccccc2c1Sc1ccccc1	-0.3	.	.	-8	.
8	COc1cc2c(C#N)c(N3CCCCC3)nc(N)c2c(N)n1	-6.4	-3%	2	43	-21
9	Cc1ccc(C)c(N2CCN(C(=O)Cn3ncc4c([nH]c5ccc(C)cc54)c3=O)CC2)c1	-6.5	.	.	12	.
10	COCc1cc(C)nc(OCC(=O)N/N=C/c2ccc(C)cc2)c1C#N	-0.6	-1%	.	0	.
11	Cc1cc(C)nc(CC(N)=O)n1	-1.4	-2%	28	-2	0
12	Cc1ccc(O)c(C(CC(=O)NCc2cccnc2)c2ccccc2)c1 (stereo not given)	-3.1	3%	.	-1	-2
13	C#CCSc1nc2ccccc2n1C(=O)c1ccc(S(=O)(=O)N2CCCCC2)cc1	.	7%	-23	-1	9
14	CSc1nsc(SC)c1C(=O)O	-0.3	-7%	.	4	3
15	COc1ccccc1NC(=O)CN(Cc1ccco1)C(=O)c1ccc(Cl)nc1	-4.6	-2%	.	8	1
16	COc1cc(C(=O)Nc2nc(-c3cc(C)ccc3C)c(C)s2)ccc1OCC(=O)Nc1ccc(F)cc1	-1.0	5%	-17	14	1
17	Cc1cc(C)n(-c2nc(C)nc3sc4c(c23)CCC(C)C4)n1 (stereo not given)	0.0	1%	-15	3	11
18	CCC(=O)Oc1ccc(C(=O)Nc2c[nH]c(=O)[nH]c2=O)cc1	4.0	3%	-28	3	-8
19	O=C(COC(=O)c1cc(NS(=O)(=O)c2cccs2)ccc1O)Nc1cc(Cl)ccc1Cl	1.4	3%	.	-4	3
20	Cc1cccc(C(=O)Nc2nnc(S(=O)(=O)N3CCCCCC3)s2)c1	2.4	.	.	0	.
21	COC(=O)c1ccc(CNC(=O)CSc2nc3ccccc3[nH]2)cc1	-2.2	.	.	4	.
22	CCN(CC)S(=O)(=O)c1ccc(NC(=O)c2cccs2)cc1	-2.8	4%	.	2	-16
23	Cc1ccc(S(=O)(=O)NC(CC(C)C)C(=O)N2CCOCCOCCOCC2)cc1 (stereo not given)	-2.8	.	.	-5	.
24	Cc1occc1-c1nnc(SCC(=O)N2CCCc3ccccc32)n1Cc1ccco1	4.8	-9%	-29	.	1
25	COc1ccc(OC)c(-n2c(-c3ccc(O)cc3O)n[nH]c2=S)c1	-7.6	0%	.	0	.

Quoted from the entries so far (2 entries):
entry	compound	RecA splice inh	Mtb H37Rv	YopH PTP inh	Mtb betalactam	Arbovirus anti
24	Cc1occc1-c1nnc(SCC(=O)N2CCCc3ccccc32)n1Cc1ccco1	4.8	-9%	-29	.	1
25	COc1ccc(OC)c(-n2c(-c3ccc(O)cc3O)n[nH]c2=S)c1	-7.6	0%	.	0	.

(listing goes on)
entry	compound	RecA splice inh	Mtb H37Rv	YopH PTP inh	Mtb betalactam	Arbovirus anti
26	O=C(Nc1ccc(F)cc1)N1CCOCC1	4.2	2%	-20	8	0
27	COc1ccccc1N1CCN(C(=O)c2ccccc2Oc2ccccc2)CC1	4.1	2%	-22	-8	-13
28	CC(C)OC(=O)c1sc2nc(-c3ccccc3)ccc2c1N	-51	-3%	-16	?	13
29	Cc1csc(NC(=O)C2CCCN(S(=O)(=O)c3ccc4c(c3)oc(=O)n4C)C2)n1 (stereo not given)	2.5	7%	-14	-4	14
30	CC(C)CC(NC(=O)C1CCCCC1)C(=O)N1CCC2(CC1)OCCO2 (stereo not given)	-1.4	0%	-2	0	7
31	Cc1cc(OC(C)C(=O)NCc2ccncc2)c2c(C)c(C)c(=O)oc2c1 (stereo not given)	-0.9	.	.	-7	.
32	Cn1cc(S(=O)(=O)N2CCN(C(=O)c3ccco3)CC2)c(=O)n(C)c1=O	0.2	0%	-41	4	6
33	CC(=O)c1c(C)[nH]c(C(=O)OCc2c(F)cccc2Cl)c1C	-0.1	1%	.	-2	3
34	O=C(Nc1ccc(F)cc1F)c1cccc(C(=O)Nc2ccc(F)cc2F)n1	-1.4	.	.	8	.
35	COC(=O)C(C)(C(=O)OC)c1ccc(C(F)(F)F)cc1[N+](=O)[O-]	3.1	4%	.	6	1
36	COc1cccc(NC(=O)CC(=O)c2ccccc2)c1	-1.6	.	.	-1	.
37	CC(CCc1ccccc1)NCc1cccc2ccccc12 (stereo not given)	0.6	.	.	2	.
38	COc1cccc(/C=N/Nc2ncccc2[N+](=O)[O-])c1OC	-1.0	6%	.	52	.
39	CSc1ccccc1NC(=S)NC1CCCC1	0.6	.	.	-2	.
40	CCOC(=O)CC1C(=O)NCCN1Cc1cccs1 (stereo not given)	-0.6	3%	.	-8	4
41	COC(=O)C1CN(C(=O)COc2cccc(C)c2C)c2ccccc2O1 (stereo not given)	-0.3	.	.	7	.
42	C/C(=N\NC(=O)C(C)n1nc(C)c([N+](=O)[O-])c1C)c1ccccc1O (stereo not given)	0.7	-4%	-11	5	-36
43	C[C@H]1CC[C@H]2C(=O)N[C@H](Cc3ccccc3)C(=O)N2[C@@H]1c1ccccc1	.	-10%	-35	-9	5
44	CCCCn1c(=O)[nH]c(=O)c2c1nc(-c1cc3c(cc1Br)OCO3)n2C	-1.7	6%	.	-5	20
45	CCOC(=O)c1cccc(NC(=O)/C=C/c2ccc([N+](=O)[O-])cc2)c1	-1.5	22%	-18	1	11
46	Cc1ccc(-c2nn(-c3ccc(F)cc3)cc2C(=O)NCC2CCCO2)cc1 (stereo not given)	1.0	.	.	-2	.
47	CS(=O)(=O)Nc1ccc(Br)cc1C(=O)c1ccccc1	2.0	-2%	4	2	-2
48	O=C(NCCN1CCOCC1)C(=O)NCC1OCCN1S(=O)(=O)c1cc(F)ccc1F (stereo not given)	-2.6	.	.	-9	.
49	CC(=O)c1cccc(NC(=O)c2ccc(C(=O)Nc3cccc(C(C)=O)c3)nc2)c1	-2.3	4%	.	-3	-9
50	FC(F)(F)c1cccc(OCc2noc(-c3ccsc3)n2)c1	1.8	-5%	.	-12	.

Ordered by heavy-atom count (largest number first): some entries from above
entry	compound	RecA splice inh	Mtb H37Rv	YopH PTP inh	Mtb betalactam	Arbovirus anti
46	Cc1ccc(-c2nn(-c3ccc(F)cc3)cc2C(=O)NCC2CCCO2)cc1 (stereo not given)	1.0	.	.	-2	.
30	CC(C)CC(NC(=O)C1CCCCC1)C(=O)N1CCC2(CC1)OCCO2 (stereo not given)	-1.4	0%	-2	0	7
38	COc1cccc(/C=N/Nc2ncccc2[N+](=O)[O-])c1OC	-1.0	6%	.	52	.

(next part)
entry	compound	RecA splice inh	Mtb H37Rv	YopH PTP inh	Mtb betalactam	Arbovirus anti
51	COc1ccccc1NC(=O)c1cc(-c2ccc(C)o2)nc2ccccc12	0.3	.	.	0	.
52	CCC(C)(C)NC(=O)C(C(C)C)N(CC1CCCO1)C(=O)CNS(=O)(=O)c1ccc(F)cc1 (stereo not given)	-1.4	.	.	2	.
53	CCOC(=O)N1CCC(N(CCN(C)C)C(=S)Nc2ccccc2C)CC1	0.5	-5%	-20	-10	-6
54	CC(=O)c1ccc(NC(=S)Nc2cccc3ccccc23)cc1	4.9	.	.	-2	.
55	CC(=O)Nc1ccc(S(=O)(=O)NCc2ccc(C)cc2)cc1	4.0	-5%	-5	-4	8
56	CNS(=O)(=O)c1cnccc1N1CCN(c2cccc(C(F)(F)F)c2)CC1	.	5%	17	-8	7
57	COCCNCC(=O)N1CCCCCC1	-1.7	0%	.	4	20
58	O=C(CCS(=O)(=O)c1ccc(Br)cc1)N1CCC2(CC1)OCCO2	.	1%	-23	-6	-2
59	COC(=O)c1ccc(C(=O)OC)c(NC(=O)CS(=O)(=O)Cc2ccccc2)c1	-0.5	2%	-53	-5	5
60	COc1cccc(-n2c(SCC(=O)Nc3sc4c(c3C(N)=O)CCC4)nc3ccccc3c2=O)c1	-0.4	-3%	-35	4	-8
61	CC1(C)Cc2c(c(-c3ccccc3)[nH]c(=O)c2C#N)CO1	-1.9	-7%	1	-5	2
62	COc1ccccc1-c1noc(CCC(=O)NC2CCCCC2)n1	-0.7	.	.	-3	.
63	O=C1c2ccccc2C(=O)N1Cc1ccc2c(c1)OCO2	-2.1	-6%	-23	-3	1
64	c1ccc(N2CCN(c3ncccn3)CC2)cc1	3.2	-4%	2	-5	4
65	CC(C)C[C@H](NC(=O)N1CCn2c1nc1ccccc12)C(=O)NCC1CCCO1 (stereo not given in full)	2.6	.	.	-1	.
66	CC1CN(C(=O)C(Sc2ccccc2)c2ccccc2)CC(C)O1 (stereo not given)	-1.6	-2%	-18	-5	-5
67	COC(=O)c1[nH]nc(C(=O)OC(C)(C)C)c1-c1ccccc1	1.6	2%	-46	4	4
68	Clc1nc(NC2CCCC2)nc(N2CCOCC2)n1	-2.1	.	.	-5	.
69	COc1cc(N)c(Cl)cc1C(=O)OCC(=O)Nc1cccnc1Cl	1.0	.	.	-4	.
70	CCNc1c(N)c(=O)oc2ccccc12	-5.2	2%	2	-20	-2
71	COc1cc(/C=N/Nc2ccc(F)cc2F)cc(OC)c1OC	-1.1	?	-14	96	-32
72	Cc1cc(C)c(C#N)c(SCc2ccccc2C)n1	0.6	21%	-20	-2	-1
73	COc1ccc(/C=C2\SC(=S)N(CC(=O)OCC(=O)Nc3ccc([N+](=O)[O-])cc3OC)C2=O)cc1	.	66%	.	.	1
74	COc1cc(/C=N/n2nnnc2Nc2ccccc2)cc(OC)c1OC	0.7	-5%	-30	0	3
75	N#C/C(=C\N1CCCCC1)S(=O)(=O)c1ccc(Cl)cc1	1.0	1%	.	-9	.

(listing goes on)
entry	compound	RecA splice inh	Mtb H37Rv	YopH PTP inh	Mtb betalactam	Arbovirus anti
76	CC(C)N(C(=O)c1ccc(C(=O)Nc2ccc([N+](=O)[O-])cc2)cc1)C(C)C	5.2	4%	.	0	1
77	COc1ccc2[nH]cc(CCNC(C)=O)c2c1	-2.2	-3%	.	1	.
78	NNC(=S)Nc1c(Br)cc(F)cc1Br	-3.3	-6%	.	89	.
79	C/C(N)=C(/C#N)C(=O)CSc1nnc(Nc2ccccc2)s1	0.8	-1%	.	3	-6
80	OCC1(Cc2ccccc2)CCCN(Cc2cnn(-c3ccccc3)c2)C1 (stereo not given)	-1.5	0%	.	-4	-21
81	CCCCn1c(=NC(=O)c2ccco2)c(C(=O)OCC)cc2c(=O)n3cccc(C)c3nc21	-186	-2%	.	-4	.
82	COc1ccc(CN2CCNC(=O)C2CC(=O)NC2CCCC2)c(C)c1C (stereo not given)	-2.1	.	.	-6	.
83	COc1ccc(C(=O)NC2CCN(S(=O)(=O)c3ccccc3F)CC2)cc1	3.4	.	.	-4	.
84	COc1ccc(NC(=O)CCNS(=O)(=O)c2ccc3c(c2)CC(C)N3C(C)=O)cc1 (stereo not given)	-0.9	.	.	2	.
85	Cc1cccc(OCCCC(=O)NCC(=O)Nc2cccc(C)c2C)c1	0.7	7%	.	2	9
86	C#CCOCCOCCOCCNc1nc(N2CCN(C(=O)C([C@@H](C)CC)n3cc(C(N)CC(C)C)nn3)CC2)nc(N2CCN(C(=O)[C@H](CCC(=O)O)n3cc(C(N)[C@H](C)CC)nn3)CC2)n1 (stereo not given in full)	-1.7	-8%	.	1	1
87	O=C(NCC1CCCO1)c1ccccc1OCc1ccc(Cl)cc1 (stereo not given)	2.0	.	.	-8	.
88	CCOc1ccc2[nH]cc(C(=O)NCCc3ccccc3)c(=O)c2c1	-0.8	.	.	0	.
89	COc1ccc(Cl)cc1NC(=O)N1CCN(c2ccccc2OC)CC1	1.8	-1%	.	1	.
90	CC(=O)NCC(=O)NNC1CC(=O)N(c2cccc(Cl)c2)C1=O (stereo not given)	-1.6	0%	.	1	.
91	CCOc1ccc2c(c1)sc(N)[n+]2Cc1cc(C)cc2cccnc12	3.3	48%	-2	24	-39
